Screening results: PubChem BioAssay, Broad Institute
Shh pathway inh: blocks Sonic Hedgehog signaling. inhibition, % (concentration not given with the values). AID 2313. 2.1% of 22,000 active. Shh-LIGHT2 Gli-luciferase reporter, 30 h;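 active means replicate mean of 65% or more; inconclusive means mean lower but half the replicates past it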;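 further: pathway switched on by Shh-conditioned medium diluted 1 in 25 in low serum; 100 nL library stock added to about 40 µL; 0% = median of neutral wells and 100% = positive control level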
YB-1 expression: YB-1 expression inhibition; U2OS, qRT-PCR YB-1 vs CDIP delta delta Cp, 16 h; stronger effect = higher value; zero = DMSO, each unit about twofold; delta delta Cp (YB-1 minus CDIP) (concentration not given with the values); 0.37% of 30,000 active; AID 434959;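 active means delta delta Cp rounded down to an integer at or above 3, about 3 SD of DMSO wells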;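 further: higher means less YB-1 transcript or more CDIP transcript relative to DMSO; stock transfer was 100 nL into about 100 µL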
PD-1 reverse act: reversal of PD-1 mediated T-cell inhibition; activation, % (no concentration beside the values); AID 2316; 29,000 tested, under 10 active; primary human CD4 T cells, PD-L1 beads, CellTiter-Glo 96 h;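 active means replicate mean of 50% or more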;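 further: 0% = median vehicle wells and 100% = positive control; 100 nL library stock added to about 50 µL; numbers are from one replicate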
MITF inhib: inhibitors of MITF; inhibition, % (test concentration not listed); 0.28% of 37,000 active; TRPM1 promoter luciferase, luminescence, 24 h; AID 2240;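 active means most replicates at 85% or more, or half of them and the mean; inconclusive means half reach 85% but not the mean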;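 further: human melanocyte line stably carrying TRPM1 promoter luciferase reporter; 0% = vehicle wells and 100% = a positive control; the first replicate is given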
Starred values were filed as active, the others as inactive; ? = inconclusive; · = not tested or not shown. A portion of the library; the hit share may differ from the screen's.

structure	Shh pathway inh	YB-1 expression	PD-1 reverse act	MITF inhib
COc1ccc(S(=O)(=O)N(C)C[C@@H]2Oc3ccc(NC(=O)c4ccncc4)cc3CC(=O)N([C@H](C)CO)C[C@H]2C)cc1	-45	-0.2	-0.4	-9
COc1ccc(NC(=O)N(C)C[C@H]2Oc3ccc(NC(=O)Nc4ccc5c(c4)OCO5)cc3CC(=O)N([C@@H](C)CO)C[C@H]2C)cc1	-9	0.7	-1.3	2
C[C@@H]1CN([C@H](C)CO)C(=O)c2cc(NC(=O)Nc3cccc4ccccc34)ccc2O[C@@H]1CN(C)Cc1ccc2c(c1)OCO2	·	0.15	-0.9	-4
CCOc1ccccc1Nc1nc(N)nc(CSc2nccc(C)n2)n1	·	·	0.4	-5
Cc1cc(C)c(S(=O)(=O)Nc2c(C)[nH]c(=O)[nH]c2=O)c(C)c1	·	·	0.4	17
C[C@@H]1CCCCO[C@@H](CN(C)C(=O)CCC(F)(F)F)[C@@H](C)CN([C@H](C)CO)C(=O)c2cc(NS(=O)(=O)c3cccs3)ccc2O1	·	-0.17	-0.3	-15
Cc1noc(C)c1S(=O)(=O)N(C)C[C@@H]1Oc2c(NC(=O)C3CC3)cccc2C(=O)N([C@@H](C)CO)C[C@@H]1C	-25	-0.27	0.8	-6
COC(=O)c1c(NC(=O)c2nc3nc(C)cc(C(F)F)n3n2)sc2c1CCC2	·	·	-0.1	-10
COc1cc(NS(=O)(=O)c2ccc(N)cc2)ncn1	2	-0.55	4.6	3
CC(C)NC(=O)Nc1ccc2c(c1)C(=O)N([C@H](C)CO)C[C@@H](C)[C@H](CN(C)C(=O)Nc1ccc(C(F)(F)F)cc1)O2	-48	-0.19	-0.3	7
CCC(Sc1nnc(N)s1)C(=O)Nc1c(C)cccc1C (configuration not stated)	·	·	0.3	-3
C[C@@H]1CN([C@@H](C)CO)C(=O)c2cc(NS(=O)(=O)c3ccccc3)ccc2O[C@H]1CN(C)S(C)(=O)=O	·	2.4	-0.7	-18
C[C@H](CO)N1C[C@H](C)[C@@H](CN(C)Cc2ccc(Oc3ccccc3)cc2)Oc2c(NC(=O)NC3CCCCC3)cccc2C1=O	47	-0.16	-3.2	22
C[C@@H]1CN([C@@H](C)CO)C(=O)c2cccc(NS(C)(=O)=O)c2O[C@H]1CN(C)Cc1ccc(C(=O)Nc2ccccc2N)cc1	·	-0.15	1.1	-7
CC1CN=C(NS(=O)(=O)c2ccccc2)N1 (configuration not stated)	-8	-0.26	2.5	15
COc1ccc(S(=O)(=O)Nc2cccc3c2O[C@@H](CN(C)Cc2ccc(-c4ccccc4)cc2)[C@H](C)CN([C@@H](C)CO)C3=O)cc1	-23	0.085	-0.7	0
C[C@H]1CN([C@@H](C)CO)C(=O)c2cccc(NC(=O)Nc3ccc(F)cc3)c2O[C@H]1CN(C)Cc1ccccc1	-29	-0.084	·	6
C[C@@H]1CN([C@H](C)CO)C(=O)Cc2cc(NC(=O)NC3CCCCC3)ccc2O[C@H]1CN(C)CC1CC1	?	-0.064	1.8	-4
CCCN(C)C[C@@H]1OCCCC[C@@H](C)Oc2ccc(NC(=O)c3ccccc3)cc2C(=O)N([C@H](C)CO)C[C@@H]1C	·	-0.1	0.8	-16
Cc1sc(NC(=O)c2cnccn2)c(C(N)=O)c1-c1ccccc1	·	·	-0.1	-112

Some values from the list.
`C[C@@H]1CN([C@@H](C)CO)C(=O)c2cccc(NS(C)(=O)=O)c2O[C@H]1CN(C)Cc1ccc(C(=O)Nc2ccccc2N)cc1` | YB-1 expression = -0.15
`CC(C)NC(=O)Nc1ccc2c(c1)C(=O)N([C@H](C)CO)C[C@@H](C)[C@H](CN(C)C(=O)Nc1ccc(C(F)(F)F)cc1)O2` | PD-1 reverse act = -0.3
`C[C@@H]1CCCCO[C@@H](CN(C)C(=O)CCC(F)(F)F)[C@@H](C)CN([C@H](C)CO)C(=O)c2cc(NS(=O)(=O)c3cccs3)ccc2O1` | MITF inhib = -15

(more compounds)
structure	Shh pathway inh	YB-1 expression	PD-1 reverse act	MITF inhib
COc1ccc(S(=O)(=O)Nc2ccc3c(c2)C(=O)N([C@H](C)CO)C[C@H](C)[C@H](CN(C)S(=O)(=O)c2ccccc2)O3)cc1	·	-1.1	-2.3	-9
CS(=O)(=O)NCCOc1ccccc1	37	-0.31	3.5	14
Cc1noc(C)c1NC(=O)N(C)C[C@H]1Oc2c(NS(=O)(=O)c3cccs3)cccc2C(=O)N([C@H](C)CO)C[C@@H]1C	1	-0.31	1.0	4
Cc1noc(C)c1NC(=O)N(C)C[C@H]1Oc2ccc(NC(=O)Nc3cccc4ccccc34)cc2CC(=O)N([C@@H](C)CO)C[C@H]1C	-5	-0.41	·	3
O=C(COc1ccc(Cl)cc1)NC(=S)Nc1ccccc1N1CCOCC1	·	·	1.5	-4
COC(=O)c1ccccc1NC(=O)CSc1n[nH]c(-c2ccncc2)n1	·	·	0.3	14
Nc1cc2ncnc(Nc3cccc(Br)c3)c2cc1N	-38	-0.32	-0.6	-6
Cc1c(Cl)cccc1NC(=O)CSCC(N)=O	·	·	1.2	0
COc1ccc(-n2c(SCC(=O)Nc3ccccc3C)nc3ccccc3c2=O)cc1	·	·	-0.8	6
Cn1c(=O)c2c(nc(SCCNS(=O)(=O)c3ccccc3)n2C)n(C)c1=O	·	·	-3.4	-4
C[C@H]1CN([C@@H](C)CO)C(=O)c2cc(NC(=O)Nc3ccc(C(F)(F)F)cc3)ccc2O[C@H]1CN(C)C(=O)Nc1ccc(F)cc1	8	-0.61	-0.4	31
C[C@@H]1CN([C@@H](C)CO)C(=O)c2cccc(NC(=O)C3CC3)c2O[C@@H]1CN(C)S(=O)(=O)c1ccc(Cl)cc1	-7	-0.71	1.1	0
CCc1ccc(-c2nc3ccccc3c(=O)o2)cc1	-173	0.2	-0.9	50
Cc1cc(C)c(S(=O)(=O)N(C)CC(=O)Nc2cc([N+](=O)[O-])ccc2C)c(C)c1	·	·	1.3	0
C[C@@H]1CN([C@H](C)CO)C(=O)c2cccc(NS(=O)(=O)c3cccs3)c2O[C@H]1CN(C)C(=O)Nc1ccc(F)cc1	35	0.23	·	5
C[C@@H]1CN([C@@H](C)CO)C(=O)Cc2cc(NS(=O)(=O)c3ccc(Cl)cc3)ccc2O[C@@H]1CN(C)Cc1ccc(Cl)c(Cl)c1	14	0.3	-1.6	13
C[C@H](CO)N1C[C@H](C)[C@H](CN(C)Cc2ccc(Oc3ccccc3)cc2)Oc2ccc(NC(=O)c3ccncc3)cc2CC1=O	34	-0.016	-0.2	-4
COc1ccccc1OCC(O)CO (configuration not stated)	-4	-0.35	·	-5
O=C(CSc1nc(N2CCCCC2)nc(N2CCCCC2)n1)N1CCc2ccccc21	·	·	0.6	3
COc1ccc(NC(=S)N2CCN(Cc3c(C)nn(C)c3C)CC2)cc1OC	·	·	2.7	-5
Cc1cc(Br)ccc1NC(=O)CN(C)S(=O)(=O)c1ccc(Cl)cc1	·	·	1.3	-22
C[C@@H]1CN([C@@H](C)CO)C(=O)c2cccc(NS(C)(=O)=O)c2O[C@@H]1CN(C)Cc1ccc(C(=O)Nc2ccccc2N)cc1	·	-0.047	-0.9	16
COc1cc(-c2cc(=O)c3c(O)c(OC)c(OC)c(O)c3o2)ccc1O	34	0.1	·	·
C/C(=C/COc1c(OC2OC(CO)C(O)C(O)C2O)ccc2ccc(=O)oc12)CO (configuration not stated)	-14	-0.064	0.4	-6
CCn1c(SCC(=O)Nc2ccc([N+](=O)[O-])cc2C)nnc1-c1ccc(Cl)cc1	·	·	-0.8	8
C[C@@H]1CN([C@@H](C)CO)C(=O)Cc2cc(N(C)C)ccc2O[C@@H]1CN(C)S(C)(=O)=O	-41	-0.23	0.3	-3
C[C@@H]1CN([C@H](C)CO)C(=O)c2cc(NC(=O)Nc3ccc4c(c3)OCO4)ccc2O[C@H]1CN(C)C(=O)Nc1ccc(F)cc1	-6	-0.33	-0.1	-3
Cc1cc(C)c(N=C(N)NN)cc1C	1	-0.97	-0.4	0
CCOC(=O)c1cnc2ccc(OCC)cc2c1NC(C)CC (configuration not stated)	34	-0.39	-21	53
COc1ccc(S(=O)(=O)N(C)C[C@H]2Oc3c(NS(=O)(=O)c4cn(C)cn4)cccc3C(=O)N([C@H](C)CO)C[C@@H]2C)cc1	-7	-0.45	1.1	0
O=C(OC1(C#CCN2CCCCC2)CCCCC1)c1ccccc1	59	-0.21	-6.4	59
CC(C)NC(=O)N(C)C[C@@H]1Oc2ccc(NC(=O)Nc3ccc(C(F)(F)F)cc3)cc2C(=O)N([C@@H](C)CO)C[C@H]1C	3	0.054	·	8
COc1ccc(S(=O)(=O)Nc2ccc3c(c2)CC(=O)N([C@@H](C)CO)C[C@H](C)[C@H](CN(C)S(=O)(=O)c2cn(C)cn2)O3)cc1	3	-0.0091	4.4	2
COc1ccc(S(=O)(=O)Nc2ccc3c(c2)C(=O)N([C@@H](C)CO)C[C@@H](C)[C@H](CN(C)CC2CCCCC2)O3)cc1	·	-0.028	1.4	5
S=c1nccc(-c2ccc3c(c2)CCO3)[nH]1	-20	0.37	-0.4	-38
C[C@@H]1CN([C@H](C)CO)C(=O)Cc2cc(NS(C)(=O)=O)ccc2O[C@@H]1CN(C)C(=O)Nc1ccc(F)cc1	-9	0.057	-0.4	4
CC(C)NC(=O)N(C)C[C@H]1Oc2c(NC(=O)Nc3ccc4c(c3)OCO4)cccc2C(=O)N([C@@H](C)CO)C[C@H]1C	-72	0.061	1.3	3
O=c1[nH]c(CSc2nnc(-c3ccccc3)o2)nc2ccccc12	·	·	-0.8	-4
O=c1c(-c2ccccc2)c(O)cc(-c2ccc(F)cc2)n1-c1ccccc1	·	-1.2	0.4	4
COc1ccc(OC)c(-c2nc(C)sc2CC(=O)O)c1	·	·	-0.6	11
CSc1ccccc1NC(=O)CN(c1ccccc1Br)S(C)(=O)=O	·	·	2.8	-2
C[C@@H]1CCCCO[C@H](CN(C)C(=O)CCCN(C)C)[C@@H](C)CN([C@H](C)CO)C(=O)c2cc(NC(=O)CCCN(C)C)ccc2O1	-5	-0.32	-1.1	-4
COc1ccc(NC(=O)N(C)C[C@H]2Oc3ccc(NC(=O)Nc4ccc(C(F)(F)F)cc4)cc3C(=O)N([C@H](C)CO)C[C@H]2C)cc1	-8	-0.11	-0.9	3
COC(=O)c1c(NC(=O)c2ccc(OC)c(OC)c2)sc2c1C(C(=O)OC)CC2 (configuration not stated)	·	·	-5.2	-12
C[C@H]1CN([C@@H](C)CO)C(=O)Cc2cc(NC(=O)NC3CCCCC3)ccc2O[C@@H]1CN(C)Cc1ccccc1	-14	-0.55	2.0	-3
Cc1cc(NC(=O)c2cccc(S(=O)(=O)N3CCOCC3)c2)no1	6	-0.28	-0.2	11
C[C@H](CO)N1C[C@H](C)[C@@H](CN(C)CC2CC2)Oc2c(NC(=O)Nc3ccc4c(c3)OCO4)cccc2C1=O	-78	-0.11	1.4	-55
CCN(C(=O)Cn1c(-c2nonc2N)nc2ccccc21)c1ccccc1	·	·	-1.6	-39
C[C@@H]1CN([C@H](C)CO)C(=O)Cc2cc(NC(=O)C3CC3)ccc2O[C@@H]1CN(C)S(=O)(=O)c1cccs1	4	0.00089	1.6	-5
COc1ccc(S(=O)(=O)Nc2cccc3c2O[C@@H](CN(C)Cc2ccc(C(=O)Nc4ccccc4N)cc2)[C@H](C)CN([C@H](C)CO)C3=O)cc1	·	-1.1	-1.6	-2

Only MITF inhib, Shh pathway inh and PD-1 reverse act, for some of the entries so far:
Compound | MITF inhib | Shh pathway inh | PD-1 reverse act
Cc1cc(NC(=O)c2cccc(S(=O)(=O)N3CCOCC3)c2)no1 | 11 | 6 | -0.2
C[C@H]1CN([C@@H](C)CO)C(=O)Cc2cc(NC(=O)NC3CCCCC3)ccc2O[C@@H]1CN(C)Cc1ccccc1 | -3 | -14 | 2.0

(further entries)
structure	Shh pathway inh	YB-1 expression	PD-1 reverse act	MITF inhib
O=C(NCc1cccnc1)c1ccc(-c2ccccc2[N+](=O)[O-])o1	·	·	-1.1	-25
COc1ccc(NC(=O)N(C)C[C@@H]2Oc3c(NC(=O)CCCCCC(=O)Nc4ccccc4N)cccc3C(=O)N([C@@H](C)CO)C[C@@H]2C)cc1	·	-0.056	2.2	-17
C[C@@H]1CN([C@H](C)CO)C(=O)c2cccc(NC(=O)Nc3ccccc3)c2O[C@@H]1CN(C)CC1CCCCC1	7	0.38	1.0	6
Cc1ccc(S(=O)(=O)Nc2cccc3c2O[C@H](CN(C)C(=O)Nc2c(C)noc2C)[C@H](C)CN([C@H](C)CO)C3=O)cc1	-14	0.23	2.8	0
COc1ccc(S(=O)(=O)N(C)C[C@@H]2Oc3ccc(NS(=O)(=O)c4cn(C)cn4)cc3CC(=O)N([C@@H](C)CO)C[C@@H]2C)cc1	-33	0.11	1.0	-17
CC(C)C(C(=O)O)N1C(=O)/C(=C/c2ccccc2)SC1=S (configuration not stated)	-41	0.056	0.3	5
C[C@H]1CN([C@@H](C)CO)C(=O)c2cccc(NS(C)(=O)=O)c2O[C@H]1CN(C)CC1CCCCC1	-23	-0.049	0.6	-15
CS(=O)(=O)N(CC(=O)NC1CCCCC1)c1cccc(Cl)c1	·	·	-1.5	-1
C[C@@H]1CN([C@@H](C)CO)C(=O)c2cc(NS(C)(=O)=O)ccc2O[C@H]1CN(C)C(=O)Nc1cccc2ccccc12	-12	2	·	-6
O=C(CSc1nc2ccccc2c(=O)n1Cc1ccccc1)c1cc2ccccc2o1	·	·	0.2	6
